# KCNQ2 inh: KCNQ2 potassium channel inhibitors, primary screen, cell-based, CHO-K1, FluxOR thallium flux, B-score (AID 2156); Potassium voltage-gated channel subfamily KQT member 2 (Rattus norvegicus), O88943; 20 min; hits give low values; only compounds with negative scores are shown here; some inactives read as strong as hits; B-score at 10 µM; hit rate 1.1% among 310,000;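 active = fluorescence ratio B-score at most minus 3 library SDs, with starting brightness B-score within 2 library SDs, cut at about -5.5 in these data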
# Target sequence (O88943 whole entry, looked up): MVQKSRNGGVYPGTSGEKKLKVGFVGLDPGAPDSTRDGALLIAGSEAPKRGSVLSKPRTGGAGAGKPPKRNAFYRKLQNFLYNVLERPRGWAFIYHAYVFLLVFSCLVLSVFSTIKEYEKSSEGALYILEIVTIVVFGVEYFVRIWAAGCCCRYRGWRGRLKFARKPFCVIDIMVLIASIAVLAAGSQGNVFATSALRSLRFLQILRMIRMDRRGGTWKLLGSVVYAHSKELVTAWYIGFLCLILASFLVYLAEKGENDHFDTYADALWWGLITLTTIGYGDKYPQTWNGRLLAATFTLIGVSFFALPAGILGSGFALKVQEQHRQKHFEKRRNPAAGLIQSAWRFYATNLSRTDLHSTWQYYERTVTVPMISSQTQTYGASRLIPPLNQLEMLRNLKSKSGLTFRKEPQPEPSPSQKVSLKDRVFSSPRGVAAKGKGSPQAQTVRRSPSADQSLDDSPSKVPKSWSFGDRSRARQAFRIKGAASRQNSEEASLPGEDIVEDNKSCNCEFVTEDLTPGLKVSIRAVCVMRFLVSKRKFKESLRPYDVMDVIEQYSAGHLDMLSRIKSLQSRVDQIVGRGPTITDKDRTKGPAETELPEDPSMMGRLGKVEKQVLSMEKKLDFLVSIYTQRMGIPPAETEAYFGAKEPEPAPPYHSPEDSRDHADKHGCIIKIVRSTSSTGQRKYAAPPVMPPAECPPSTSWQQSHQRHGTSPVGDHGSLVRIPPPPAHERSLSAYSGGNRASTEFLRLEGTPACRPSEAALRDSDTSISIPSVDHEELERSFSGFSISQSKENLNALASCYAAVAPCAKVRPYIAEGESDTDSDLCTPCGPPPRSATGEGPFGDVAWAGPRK
# KCNQ2 inh baseline: recorded beside KCNQ2 inh, whose call it bears; B-score; measured here: initial fluorescence intensity artifact check;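 brightness before thallium and not channel activity; 0 = typical well and far values either way flag optical interference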
# * = called active by the depositor; i = inactive.
SMILES,KCNQ2 inh,KCNQ2 inh baseline
c1ccc2nc(-c3ccc4c(c3)OCO4)ccc2c1,i,-1.44
CCOC(=O)NC(=O)COC(=O)CNC(=O)c1cccc(OC)c1,i,0.38
CCCCC(C(=O)NC(C)c1ccccc1)C(=O)NC(C)c1ccccc1 (configuration not stated),i,1.16
O=C(Nc1ccc(S(=O)(=O)N2CCc3ccccc32)cc1)c1ccc2c(c1)OCO2,i,0.76
Cn1c(-c2ccc3c(c2)OCO3)cnc1NCc1ccc(Cl)cc1,i,-0.48
O=C(Nc1ncccc1O)c1ccc(OCC2CCCO2)cc1 (configuration not stated),i,0.24
CCOC(=O)n1c(=O)oc2ccccc21,i,1.09
O=C(NCc1ccco1)c1ccc2c(c1)N(Cc1ccc(Cl)cc1)CCS2,i,0.24
COc1cc(/C=C2\NC(=S)N(C)C2=O)ccc1O,i,-0.12
COc1ccc2oc(-c3ccccc3)c(C(N)=O)c2c1,i,0.54
CCN1C(=O)/C(=C/C=C2/CCCN2C)OC1=S,i,8.92
Cc1cc(F)ccc1NS(=O)(=O)c1c(C(=O)N2CCOCC2)c(C)n(C)c1C,i,0.63
N=c1oc2c3c4c(cc2cc1C(=O)Nc1ccccc1)CCCN4CCC3,i,73.8
CC1(C)Cc2c(c(-c3ccccc3Cl)[nH]c(=O)c2C#N)CO1,i,-0.75
O=C1c2ccccc2C(=O)N1CCc1csc(-c2ccccc2)n1,i,0.02
CS(=O)(=O)NC1c2cccc3cccc(c23)C1Sc1nncn1/N=C/c1ccco1 (configuration not stated),i,-2.1
CC(=C\c1ccco1)/C=C1/SC(=S)N(CC(=O)O)C1=O,i,-0.72
CC(C)(C)c1ccc(/C=N/NC(=O)CN2CCS(=O)(=O)CC2)cc1,i,-0.01
Cc1ccsc1/C=N/NC(=O)c1nnn(-c2nonc2N)c1CN(C)c1ccccc1,i,0.43
COc1ccc(CCNC(=O)C(=O)NCC2OCCN2S(=O)(=O)c2ccc(C)cc2)cc1 (configuration not stated),i,1.61
Cc1cccc(CSc2nnc(-c3cnccn3)n2C)c1,i,-0.35
O=C(Nc1ccc(CN2CCS(=O)(=O)CC2)cc1)c1ccccc1,i,-0.22
COc1ccc(NC(=S)NC2CCCCC2)cn1,i,2.48
Cc1ccc(S(=O)(=O)N2CCN(C(=O)c3ccc4c(c3)OCO4)CC2)cc1,i,2.37
CCOC(=O)C1CCN(c2ncnc3c2oc2ccc(Cl)cc23)CC1,i,-0.08

# Following part:
SMILES,KCNQ2 inh,KCNQ2 inh baseline
CCOC(=O)C1=C(CNCCc2ccc(Cl)cc2)NC(=O)NC1c1ccc2c(c1)OCO2 (configuration not stated),i,1.49
COC(=O)c1cc(NC(=S)N2CCN(c3ccccn3)CC2)cc(C(=O)OC)c1,i,-0.56
Oc1ccc(/C(Cc2ccccn2)=N\Nc2ccccc2)c(O)c1,i,0.91
NS(=O)(=O)c1ccc(CCNC(=O)C(=O)c2cn(CC(=O)N3CCOCC3)c3ccccc23)cc1,i,-1.09
Cc1ccc(NC(=O)CS(=O)CC(=O)N(c2ccc(C)cc2)C(C)C(=O)NC2CCCCC2)cc1 (configuration not stated),i,-0.56
CC1CCCC(NS(=O)(=O)c2cc3c(cc2Cl)NC(=O)CO3)C1C (configuration not stated),i,-0.53
Cc1cccc2cc3c(N)c(C(=O)N4CCCc5ccccc54)sc3nc12,i,0.92
Cc1cc(C)[n+](C)n1CC(O)Cn1c2ccccc2c2ccccc21 (configuration not stated),i,-0.96
CC(=O)c1cccc(NC(=S)NCCc2ccc(Cl)cc2)c1,i,-0.26
Cc1c2c(nc3ccccc13)CCC(C(C)(C)C)C2 (configuration not stated),i,1.41
CCCCn1c(N)c(N(CCOC)C(=O)c2ccc(-c3ccc([N+](=O)[O-])cc3)o2)c(=O)[nH]c1=O,i,1.93
C=C(C)Cn1c(=S)[nH]c2ccccc2c1=O,i,1.44
CC(C)Cn1c(N)c(C(=O)COC(=O)c2cccnc2Cl)c(=O)n(C)c1=O,i,-0.04
CSc1cccc(NC(=S)N(CCC(C)C)C(C)c2ccncc2)c1 (configuration not stated),i,0.02
O=C(O)c1ccc(N/N=C/c2ccc(-c3ccc(Br)cc3)o2)cc1,i,-2.07
Cc1c(C(=O)N2CCCCC2C)sc2ncnc(N3CCc4ccccc4C3)c12 (configuration not stated),i,-1.1
O=c1ccc2ccc(OCc3nnc(-c4ccccc4Br)o3)cc2o1,i,-0.13
Cc1ccc(S(=O)(=O)/N=C(/c2ccc(F)cc2)N(C)C)cc1,i,0.04
Cc1cc(C)n(-c2nc(-n3nc(C)cc3C)c3c4c(sc3n2)COC(C)(C)C4)n1,-7.97*,-2.38*
O=C(Nc1ccsc1C(=O)O)c1cccc(Oc2ccccc2)c1,i,0.6
CONC(=O)c1cc(OCC(F)(F)F)ccc1OCC(F)(F)F,i,1.91
CCOC(=O)c1sc(NC(=O)C(CC)Sc2nnc3c4ccccc4n(CC)c3n2)nc1C (configuration not stated),i,-0.67
COc1ccc(/C=C/C(=O)c2ccc(Cl)s2)cc1O,i,0.89
CC1CCN(C(=O)c2cccc(S(=O)(=O)N3CCCCC3)c2)CC1,i,0.15
Clc1ccc(-c2ccnc(-n3cccc3)n2)s1,i,1.83

# Exported with each value named: part of the list above
Compound: CONC(=O)c1cc(OCC(F)(F)F)ccc1OCC(F)(F)F
  KCNQ2 inh: i; KCNQ2 inh baseline: 1.91
Compound: CCOC(=O)c1sc(NC(=O)C(CC)Sc2nnc3c4ccccc4n(CC)c3n2)nc1C (configuration not stated)
  KCNQ2 inh: i; KCNQ2 inh baseline: -0.67
Compound: COc1ccc(/C=C/C(=O)c2ccc(Cl)s2)cc1O
  KCNQ2 inh: i; KCNQ2 inh baseline: 0.89
Compound: CC1CCN(C(=O)c2cccc(S(=O)(=O)N3CCCCC3)c2)CC1
  KCNQ2 inh: i; KCNQ2 inh baseline: 0.15

# (cont.)
SMILES,KCNQ2 inh,KCNQ2 inh baseline
COc1ccccc1NC(=O)NNC(=O)c1ccc2ccccc2c1,i,-2.39
O=C(c1ccc(Cl)cc1)C1CCCN(Cc2cccn2-c2cccnc2)C1 (configuration not stated),i,-1.96
CCOC(CNC(=O)c1ccc2c(c1)ncn2-c1ccccc1OC)OCC,i,0.68
COc1cc(C(=O)Nc2ccc3c(c2)OCO3)c([N+](=O)[O-])cc1OC,i,0.13
Cc1ccc(-c2csc(N=C(N)N)n2)c(C)c1,i,1.31
CN(Cc1ccccc1)C(=O)c1[nH]cnc1C(=O)N[C@@H](Cc1ccccc1)C(=O)OC(C)(C)C,i,-0.99
Clc1ccc(-c2nc(C3CCCCC3)no2)cc1,i,1.31
CC(=O)/C=C1/SC(CC(=O)O)C(=O)N1c1ccccc1 (configuration not stated),i,-1
CCCCN(C(=O)Cc1cccc(F)c1)c1c(N)n(CCC)c(=O)[nH]c1=O,i,3.12
O=C(CN1CC[n+]2c(-c3ccccc3)csc21)c1ccc(Br)cc1,i,1.59
CCCN(CCC)CCNc1c(NC2CCN(C(=O)OCC)CC2)c(=O)c1=O,i,1.19
COc1ccc(/C=C(/C(=O)Nc2ccccc2C(=O)N2CCCC2)c2ccccc2)cc1,-6.61*,0.04*
O=C1C2C(C(=O)N1c1nccs1)C1C=CC2C12CC2 (configuration not stated),i,-0.1
Cc1nnsc1C(=O)NC(C)C12CC3CC(CC(C3)C1)C2 (configuration not stated),i,0.97
Cc1cccc(C(=O)N(Cc2cccs2)C2CCS(=O)(=O)C2)c1 (configuration not stated),i,0.27
CCOc1ccc(N=C2NC(=O)C(CC(=O)Nc3ccccc3)S2)cc1 (configuration not stated),i,-0.12
COc1ccc(-n2cc(CN(C)C(C)c3ccncn3)c(-c3cccc(F)c3)n2)cc1 (configuration not stated),i,1.47
CCCc1c(C)nc(N2CCN(c3ccccc3F)CC2)[nH]c1=O,i,-0.01
Cc1ccc(NC(=O)c2ccncc2)cc1[N+](=O)[O-],i,0.11
Cc1[nH]c2ccccc2c1C(O)CN1CCC2(CC1)OCCO2 (configuration not stated),i,-0.95
COc1ccc(N(CC(=O)Nc2ccc(F)cc2)S(=O)(=O)c2ccccc2[N+](=O)[O-])c(OC)c1,i,-0.77
O=C(NN=C1CCCCCC1)c1cccnc1,i,-0.4
Cc1ccc(NC(=O)CCC(=O)N/N=C/c2ccc(O)cc2)cc1,i,0.17
ClC(Cl)(Cl)c1nc2ccccc2n2nncc12,i,1.04
CCC(C)NC(=O)CN1C(=O)c2cccc3cccc1c23 (configuration not stated),i,-0.06

# Continued.
SMILES,KCNQ2 inh,KCNQ2 inh baseline
COc1ccc(-c2noc(-c3ccccc3C(=O)NCc3ccco3)n2)cc1,i,-1.27
Fc1ccc2nc(C3CCN(Cc4nc(CC5CC5)no4)CC3)[nH]c2c1,i,0.3
CCC(C)(C)NC(=O)C(OC(=O)c1cc2sccc2n1C)c1ccc(OC)cc1 (configuration not stated),i,0.15
CN(C(=O)c1ccc(COc2ccccc2Cl)o1)c1ccccc1,i,1.37
COc1ccccc1OCC(=O)N/N=C1\CCCCc2ccccc21,-7.07*,-0.75*
CC1(C)N=C(SCC(=O)Nc2ccc(Cl)cc2)C(c2ccccc2)=N1,i,1.29
COc1ccc(N2C(=S)NC3c4cc(Cl)ccc4OC2(C)C3C(=O)N(C)C)cc1 (configuration not stated),i,0.93
Cc1ccc(S(=O)(=O)CCC(=O)Nc2nnc(-c3cccs3)o2)cc1,i,-0.48
C=C(C)CSc1nnc2n(Cc3ccccc3)c(=O)c3c4c(sc3n12)CCC4,i,0.63
C=CCn1c(SCC(=O)NCc2ccco2)nc2sc3c(c2c1=O)CCCC3,i,-1.16
CN(C)C(=O)c1cc(C(=O)c2ccc(F)cc2F)c[nH]1,i,0.13
CCC1CCCCN1C(=O)c1cc(COc2ccc3ncccc3c2)on1 (configuration not stated),i,-1.04
COc1cccc(CNC(=O)C(=O)NCCC2CCCCN2S(=O)(=O)c2cccs2)c1 (configuration not stated),i,0.02
O=C(/C=C/c1ccc(OCCCF)cc1)NCc1ccc(Cl)c(Cl)c1,i,1.5
CCN(CC)CCNC(=O)CCc1c(C)nc2c(c(C)nn2-c2ccc(C)c(C)c2)c1C,i,-2.31
CCCS(=O)(=O)N1CCCC(C(=O)NCCN(C)Cc2ccccc2)C1 (configuration not stated),i,-0.01
CC(C)CC(=O)c1c[nH]c(C(=O)NCc2cccnc2)c1,i,-0.12
O=C(Nc1cccc(Br)c1)c1cc2ccccc2o1,i,-0.39
CN(c1ccc(C(=O)NCCSCc2c(F)cccc2Cl)cc1)S(C)(=O)=O,i,1.32
Cc1ccnc(NS(=O)(=O)c2ccc(NC(=O)c3ccc(C)o3)cc2)n1,i,2.13
NC(=O)C1CCN(C(=O)COc2ccc3ccccc3c2Br)CC1,i,0.04
CC(=O)Nc1nnc(-c2c(-c3ccccc3Cl)noc2C)o1,i,-0.64
COc1ccc(NC(=O)N2CCC(C(=O)c3ccc(F)cc3)CC2)cc1,i,1.93
CN(C)c1ccc(N=Nc2cccc(F)c2)cc1,i,0.62
O=C(CCNS(=O)(=O)c1ccc(Cl)cc1)N1CCOCC1,i,-0.09

# Additional structures follow:
SMILES,KCNQ2 inh,KCNQ2 inh baseline
COc1ccc(C(=O)C2CCCN(Cc3cn[nH]c3-c3ccc(F)cc3)C2)cc1OC (configuration not stated),i,-0.01
CCN(CC)c1ccc(NC2CC(=O)N(CCc3ccc(OC)cc3)C2=O)cc1 (configuration not stated),i,0.44
CCOC(=O)c1ccc(NC(=O)c2nc[nH]c2C(=O)NC2CCN(C(=O)OC(C)(C)C)CC2)cc1,i,-2.03
CCOc1ccc(Br)cc1S(=O)(=O)N1CCSC1,i,-1.42
CC(=O)NNC(=O)c1cc2sccc2s1,i,-2.16
C=CCOc1ccccc1/C=N/NC(=O)c1ccc(Cl)cc1Cl,i,1.17
Cc1noc(C)c1S(=O)(=O)N(CCc1ccccc1)Cc1ccccc1,i,0.06
Cc1ccc(OCc2ccc(C(=O)O)o2)cc1C,i,2.94
O=C(NCCc1cnn(-c2ccccc2)c1)c1cc(COc2c(F)cccc2F)on1,i,0.7
Cc1nn(C)cc1C(=O)Nc1cc(Oc2ccc(Cl)cc2)cc([N+](=O)[O-])c1,i,1.1
CCn1c(/C=C/c2ccccc2[N+](=O)[O-])nc2ccccc2c1=O,i,-0.2
O=C(NCCc1ccc(Cl)cc1)c1ccc2nc[nH]c2c1,i,2.41
CCCCn1c(N)c(N(CCOC)C(=O)C2CCN(S(=O)(=O)c3ccc(Cl)cc3)CC2)c(=O)[nH]c1=O,i,0.01
Nc1nccc(-c2nn(-c3ccc(Cl)cc3)ccc2=O)n1,i,1.02
CC(C)C(c1nnnn1C1CCCC1)N1CCC(C(N)=O)CC1 (configuration not stated),i,0.25
Cc1ccccc1NC(=O)c1ccccc1NC(=O)Cc1cccc2ccccc12,i,-0.6
COc1ccccc1CN(Cc1nc2ccccc2c(=O)[nH]1)C(=O)Nc1ccccc1C,i,-1.2
Cc1ccc(NC(=O)Cc2c[nH]c3ccccc23)cc1S(=O)(=O)N1CCCCCC1,i,0.01
CN(c1ccccc1)S(=O)(=O)c1cccc(C(=O)OCC(=O)Nc2ccc3[nH]c(=O)[nH]c3c2)c1,i,0.26

# Sorted by formula weight (low to high): part of the list above
SMILES,KCNQ2 inh,KCNQ2 inh baseline
CC(=O)NNC(=O)c1cc2sccc2s1,i,-2.16
C=CCOc1ccccc1/C=N/NC(=O)c1ccc(Cl)cc1Cl,i,1.17
Cc1nn(C)cc1C(=O)Nc1cc(Oc2ccc(Cl)cc2)cc([N+](=O)[O-])c1,i,1.1

# Profiles from above. Screens in order: KCNQ2 inh | KCNQ2 inh baseline
# CCOc1ccc(Br)cc1S(=O)(=O)N1CCSC1 in the list: i | -1.42
# Cc1ccc(NC(=O)Cc2c[nH]c3ccccc23)cc1S(=O)(=O)N1CCCCCC1 in the list: i | 0.01

# Not all compounds are listed; count on the stated rates, not on these rows.
